Compound activity from PubChem BioAssay.
CDC25B-CDK2 inh – primary biochemical HTRF screen for blockers of M-phase inducer phosphatase 2 binding to CDK2/cyclin A; P30305+P24941; HTRF CDC25B-CDK2/CyclinA binding, anti-His/anti-Flag; active compounds read high; z-score (no concentration beside the values); 94,000 compounds, 0.72% hits; AID 1259370, 2018;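 note: score is relative to mean and SD of negative controls; strong numbers were not always called active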
HIV TAR-Tat – TAR RNA-Tat peptide displacers, HIV-1, primary screen, biochemical, FRET, FAM/TAMRA-labeled Tat | AID 1259389, 2018 | z-score (no concentration beside the values) | 100,000 compounds, 0.6% hits | HIV-1 TAR RNA, Tat peptide displacement FRET; active compounds read high;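 note: score is relative to mean and SD of negative controls; some compounds called inactive have numbers as strong as hits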
An asterisk follows results filed as active; . = not tested or not shown.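 Rule for the calls: active = z-score from 3 up in half or more of its runs; inactive = the rest.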 Hits appear at their usual frequency; overall some 0.87% were active at least once.

SMILES | CDC25B-CDK2 inh | HIV TAR-Tat
CC1CCCCN1CCCNC(=O)C(=O)Nc1ccc2nc3n(c(=O)c2c1)CCCCC3 (stereo not drawn) | -4.9 | .
COc1ccc(OC)c(NC2=NS(=O)(=O)C(c3cccc(Br)c3)=C2C)c1 | -1.7 | -5.8
CN1c2ccccc2-c2nc(SCC(=O)Nc3ccc4c(c3)OCCO4)ncc2S1(=O)=O | . | 0.57
CCOc1ccc(CCn2c(C)c(C)c3c2ncn2nc(-c4ccco4)nc32)cc1OCC | -0.96 | 0.01
CC1CCc2c(sc(NC(=O)C3(c4ccccc4)CCCC3)c2C(N)=O)C1 (stereo not drawn) | . | -0.49
O=C(CCS(=O)(=O)c1ccc2c(c1)NC(=O)CS2)Nc1cccc(Cl)c1 | . | -1.4
O=C(CSc1ccc(-c2cccnc2)nn1)NCc1ccc(Cl)cc1 | . | 0.41
CCOC(=O)c1c(NC(=O)NCC(C)O)sc2c1CC(C)(C)OC2 (stereo not drawn) | -1.4 | 0.53
CC(C(=O)Nc1ccc2c(c1)CCC2)n1nc(-c2ccc3c(c2)OCCO3)ccc1=O (stereo not drawn) | -0.6 | 0.96
N#CCC(=O)N/N=C/c1ccc(-c2cc(C(F)(F)F)cc(C(F)(F)F)c2)o1 | -0.48 | .
CCSc1nc(-c2ccc(C)cc2)c(C#N)c(=O)[nH]1 | -0.67 | 0.72
CCOCCOC(=O)COc1ccc2c(=O)c(-c3cccc4ccccc34)c(C(F)(F)F)oc2c1 | -0.19 | 0.42
COCCCNC(=O)CCCn1nc(C)c2sc3ccccc3c2c1=O | -3 | 0.59
Cc1ccccc1-c1n[nH]n2c1nc(=O)c1ccc(Cl)cc12 | -1.4 | 0.99
Cc1nn(-c2ccccc2)c(OC(=O)CC(C)C)c1S(=O)(=O)c1ccccc1 | -3.4 | .
c1ccc(N2CCN(c3ncnc4c3nc3n4CCCC3)CC2)cc1 | . | 0.82
O=S(=O)(NCc1cccn1Cc1cccc(F)c1)c1ccccc1Cl | . | 1.8
NC(=O)c1sc2nc(N3CCCC3)c3c(c2c1N)CCCC3 | -1.8 | -0.03
c1coc(CSc2nc3ccccc3n3cnnc23)c1 | -0.38 | 0.06
Cn1c(=O)[nH]c(=O)c2c1nc(NCCCO)n2CCCc1ccccc1 | -0.41 | -0.62

Copied from the list.
CDC25B-CDK2 inh with COCCCNC(=O)CCCn1nc(C)c2sc3ccccc3c2c1=O is entered as -3
CDC25B-CDK2 inh with Cn1c(=O)[nH]c(=O)c2c1nc(NCCCO)n2CCCc1ccccc1 is entered as -0.41
HIV TAR-Tat with CCOc1ccc(CCn2c(C)c(C)c3c2ncn2nc(-c4ccco4)nc32)cc1OCC is entered as 0.01
HIV TAR-Tat with O=S(=O)(NCc1cccn1Cc1cccc(F)c1)c1ccccc1Cl is entered as 1.8
HIV TAR-Tat with O=C(CSc1ccc(-c2cccnc2)nn1)NCc1ccc(Cl)cc1 is entered as 0.41

Next structures
SMILES | CDC25B-CDK2 inh | HIV TAR-Tat
COc1cc(CCC(C)NC(=O)c2ccco2)ccc1OC(=O)c1ccco1 (stereo not drawn) | 0.06 | .
O=C(NCCCN1CCN(C2CCCCC2)CC1)c1csc2c1CCCCC2 | -1.7 | 0.27
CC(C)(C)c1cc(=O)n2c(nc3ccccc32)[nH]1 | -0.76 | -1.9
CCC(CC)C(=O)Nc1ccccc1SCc1cc(=O)n2c(ncn2CC(C)C)n1 | -1.5 | -2.2
CN(C)c1ccc(/C=N/NC(=O)Cc2nonc2N)cc1Br | -0.66 | .
O=C(Nc1nc(-c2cccs2)ns1)c1ccc(F)cc1 | -5.8 | 1.6
Cc1cc(C)cc(-n2nnc(-c3nsc(NC(=O)c4cccs4)n3)c2C)c1 | . | 0.33
COC(=O)Cn1cnc(S(=O)(=O)N2CCOCC2)c1 | . | 1.9
C=C(C)CC(Nc1ccccc1F)c1ccco1 (stereo not drawn) | -0.52 | 0.43
COc1cccc(-c2nc3c(C#N)c[nH]n3c2NC2CCCC2)c1OC | -0.39 | 0.78
COCCNc1ncnc2c1cnn2-c1ccc(F)cc1 | . | 1.4
CC1CSc2ccc(S(=O)(=O)Nc3cc(F)ccc3F)cc2NC1=O (stereo not drawn) | . | 0.96
OC[C@@H](O)[C@H](O)[C@H](O)[C@@H](O)C(SCc1ccccc1)SCc1ccccc1 | 0.19 | .
N/C(C[n+]1ccccc1)=N\O | -1.3 | .
Cc1c(C(=O)O)oc2cc3sc(N4CCCCC4)nc3cc12 | -3.3 | -0.32
Cc1ccc2c(=O)cc(C(=O)Nc3nnc(CC(C)C)s3)oc2c1C | -1.4 | 1
CCOC(=O)Nc1ccccc1C(=O)OC | -2.2 | .
COc1ccc(C2c3c(-c4ccccc4O)n[nH]c3C(=O)N2CCc2ccccc2)cc1 (stereo not drawn) | -1.1 | 2.3
CN1C(=O)C(C)(C)c2cc(S(=O)(=O)N3CCC(C(=O)N4CCc5ccccc5C4)CC3)ccc21 | . | 0.87
COc1ccc(OC)c(NS(=O)(=O)c2cc(-c3cnc(C4CC4)o3)ccc2C)c1 | . | 0.14
CCN(c1ccccc1)c1c(-c2ccc(C(C)C)cc2)c(=O)c1=O | . | 1.5
Cc1ccc(CNc2sc(S(C)(=O)=O)nc2S(=O)(=O)c2ccc(Cl)cc2)cc1 | -6.2 | -0.79
CCCc1sc(NC(=O)c2cc(OC)c(OC)c(OC)c2)nc1-c1ccc(OC)c(OC)c1 | -0.33 | .
c1ccc(-n2ncc3c(NC4CCCCC4)ncnc32)cc1 | -0.1 | 0.74
O=C(CN1C(=O)CCc2ccccc21)Nc1nccs1 | . | 0.58
CC1CCN(C(=O)c2noc3c2COc2ccccc2-3)CC1 | 0.7 | 0.35
CCc1ccc(C2NC(=O)c3[nH]nc(-c4ccc(OC)cc4)c32)cc1 (stereo not drawn) | . | 1.6
O=C(C1COc2cc(S(=O)(=O)Nc3ccc(Cl)cc3)ccc2O1)N1CCCC1 (stereo not drawn) | . | -1.8
CCOC(=O)c1cc(=O)n2[nH]c(-c3ccc(-c4ccccc4)cc3)cc2n1 | -1.7 | .
O=C(Cn1c(=O)oc2ccccc21)Nc1ccc(N2CCOCC2)cc1 | -1.3 | -1.1
CCC(=O)N1CCc2cc(Br)cc(S(=O)(=O)CCC(=O)NC3CCCCC3C)c21 (stereo not drawn) | 1.5 | 0.43
O=C(O)CCC(=O)Nc1nc2ccccc2s1 | 0.08 | 0.85
COc1ccc(-c2cccc(NS(=O)(=O)c3ccc(C)c(C)c3)c2)nn1 | . | 1.3
COCc1nc2ccccc2n1Cc1ccccc1 | -1.1 | 1.2
COc1ccc(C2Nn3c(nnc3-c3ccccc3)SC2C(=O)N2CCCC2)cc1 (stereo not drawn) | -0.73 | 2.4
Cc1cc(C)cc(NS(=O)(=O)c2ccc3[nH]c(=O)ccc3c2)c1 | . | 0.47
Cc1ccc(C2CC(c3ccc(NS(C)(=O)=O)cc3)=NN2C(=O)c2ccco2)cc1 (stereo not drawn) | -0.57 | .
COC(=O)c1cc(NC(=O)c2ccc3ccccc3c2)cc(C(=O)OC)c1 | -2 | .
COc1cc(CNCc2ccc(Br)cc2)cc(OC)c1 | -0.59 | 0.37
CCC1(c2cccc(OC(=O)C3CCCCC3)c2)CCCCN(C)C1=O (stereo not drawn) | -1.2 | .
O=C(O)C1CCN(S(=O)(=O)c2cccc(F)c2)CC1 | -2.5 | 1.5
Cc1cc(N2CCN(c3ccc(O)cc3)CC2)nc(-n2cc([N+](=O)[O-])cn2)n1 | . | 1.3
Clc1cccc(-n2ncc3c(NCCc4c[nH]c5ccccc45)ncnc32)c1 | . | 1.7
Cn1c(=O)[nH]c(=O)c2c1nc(N1CCCCC1)n2Cc1ccc(F)cc1 | -1.3 | .
COc1ccc(C)cc1NC1=NS(=O)(=O)C(c2cccc(Br)c2)=C1C | -2.8 | -3.4
Cc1cccc(NS(=O)(=O)c2cc(-c3cc(C)no3)ccc2C)c1 | . | 0.09
CN(C)c1ccc(C2C=C(Nc3ccccc3)C(=O)N2c2ccccc2)cc1 (stereo not drawn) | -3.7 | -0.45
CCC(C)NC(=O)C1CCCN(S(=O)(=O)N(C)c2ccc(F)cc2)C1 (stereo not drawn) | . | 2.9
CNc1ncc(Br)nc1N | 0.96 | -4.4
Clc1cc(Cl)cc(Br)c1 | -1.3 | .
CC(C)(C)c1ccc(-c2cc(N)n(S(=O)(=O)c3cccc4nsnc34)n2)cc1 | -1.4 | 0.15
CC(C)CNc1ncnc2c1nnn2C | . | 1.2
O=c1c(Cl)c(N2CCOCC2)cnn1-c1nc2ccccc2o1 | -0.19 | -0.97
Cc1ccc(C(=O)O)cc1NC(=O)C1=CSCCO1 | 0.06 | 1.9
N#CCC(=O)c1cc(-c2ccccc2)c(C(F)(F)F)s1 | 0.59 | .
CCOC(=O)c1cccc(NS(=O)(=O)c2c(C)nc3sc(C)cn3c2=O)c1 | . | 0.67
Cc1cc(-c2ccc(C)c(S(=O)(=O)Nc3ccc(Br)cc3F)c2)on1 | . | -1.1
O=C(NC1CCCC1)c1nnc(Cc2ccc(F)cc2Cl)o1 | -1.4 | 0.24
CCn1ccc2cc(S(=O)(=O)N3CCCN(C(=O)NCc4ccco4)CC3)ccc21 | . | 0.33
CCc1cc2c(cc3c(=O)n(CC(=O)NCc4ccco4)nc(CC)n32)s1 | -0.81 | -0.99

(list continues)
SMILES | CDC25B-CDK2 inh | HIV TAR-Tat
O=S(=O)(NC1CCCCC1)c1ccc(-n2cnnn2)cc1 | -2.2 | -1.1
COc1ccccc1CNS(=O)(=O)c1cn(C)cn1 | . | 1.7
CC(=O)Nc1cccc(-n2nnc(SCC(=O)c3cc(-c4ccccc4)no3)n2)c1 | -0.36 | .
CC(C)C(NC(=O)CN1C(=O)c2cccc3cccc1c23)C(C)C | 0.18 | 0.23
CCCCCCCC/C=C\CCCCCCCC(=O)NCc1ccc(O)c(OC)c1 | -0.82 | .
O=C1c2[nH]nc(-c3ccccc3O)c2C(c2ccc(Br)cc2)N1CCO (stereo not drawn) | -2.3 | 1.9
CCCn1c2ccccc2c2nnc(SCC(=O)Nc3nnc(C)s3)nc21 | -1 | 0.08
CCOC(=O)C(CCSC)NC(=O)CN (stereo not drawn) | -2.5 | 0.38
CCC(C)NC(=O)C1CCN(C(=O)c2sccc2-n2cccc2)CC1 (stereo not drawn) | -1.1 | .
COCCCNS(=O)(=O)c1ccc2c(c1)NC(=O)CC(C)S2 (stereo not drawn) | . | 1.1
Nc1cc(-c2ccco2)nn1-c1cc(C(F)(F)F)cc(C(F)(F)F)c1 | -1.6 | .
O=C(Cn1cnc(S(=O)(=O)N2CCCCC2)c1)N(Cc1cccs1)C1CCCC1 | . | 0.16
Cc1ccc(CSc2ncc(CO)n2Cc2ccc(C)cc2)cc1 | . | 1.3
O=C(NCc1ccc(F)cc1)c1ccc2c(c1)ncn2C1CCCC1 | . | 1
CCc1c(CN2CCC(N3CCCCC3)CC2)csc1C | . | 1.1
CCOc1cc(/C=C2/SC(=S)N(CC)C2=O)ccc1OCc1cccc(C)c1 | -3.8 | .
O=C(NCCc1c[nH]c2ccccc12)C1CCCN(c2nn3c(=O)c4c(nc3s2)CCCC4)C1 (stereo not drawn) | . | 2.1
CC1CCc2c(sc3c2CSC(C(=O)Nc2ccc(F)cc2)=C3)C1 (stereo not drawn) | . | -1
CCOc1ccc(NC(=O)CCCC(=O)OCC(=O)c2ccc(C)c([N+](=O)[O-])c2)cc1 | -0.93 | .
CCNc1nc(N2CCN(C(=O)c3ccco3)CC2)nc2c1cnn2C | . | 1.8

Given with values under each structure: 3 of the compounds above.
The line under a structure holds: CDC25B-CDK2 inh	HIV TAR-Tat
O=C(Cn1cnc(S(=O)(=O)N2CCCCC2)c1)N(Cc1cccs1)C1CCCC1
 : .	0.16
CCOc1cc(/C=C2/SC(=S)N(CC)C2=O)ccc1OCc1cccc(C)c1
 : -3.8	.
O=C(NCCc1c[nH]c2ccccc12)C1CCCN(c2nn3c(=O)c4c(nc3s2)CCCC4)C1 (stereo not drawn)
 : .	2.1

Next section.
SMILES | CDC25B-CDK2 inh | HIV TAR-Tat
CCOCCSc1ncc(CO)n1Cc1ccc(Cl)cc1 | . | 2.2
CCc1ccc(S(=O)(=O)Nc2c(-n3cnnc3)nn(CC)c2C)cc1 | -3.1 | 1
O=C(c1ccc2nonc2c1)N1CCN(c2ccccc2)CC1 | 0.98 | .
O=C(O)C1CCC(CNc2c(NC3CCCCC3)c(=O)c2=O)CC1 (stereo not drawn) | . | -0.7
O=S(=O)(Nc1cccc(-c2cn3ccccc3n2)c1)c1ccc(Br)cc1 | -0.91 | -0.04
COc1ccc(-c2cnc3ncnn3c2N)cc1 | -1.8 | 1.2
O=C(O)Cn1ncc2c3ccccc3n(Cc3cccc(Cl)c3)c2c1=O | 0 | 0.09
CCOc1ccc(OCC)c(NS(=O)(=O)c2cc3[nH]c4c(c3cc2C)C(=O)CC(C)(C)C4)c1 | . | -0.38
CN1CCc2ccccc2Cc2[nH]c3ccccc3c2CC1 | 1.3 | .
COc1ccc(NS(=O)(=O)c2ccc(C(=O)N3CCCC3)s2)c(OC)c1 | . | 1.5
O=C1C=CC(=O)N1c1ccc(S(=O)(=O)Nc2ccc(C(F)(F)F)cc2)cc1 | -1.7 | .
O=C(c1cc(-c2ccc(Cl)cc2)on1)N(Cc1ccco1)C1CCS(=O)(=O)C1 (stereo not drawn) | -2.5 | 0.79
CC(C)c1ccc(CN(C(=O)c2nc(S(C)(=O)=O)ncc2Cl)C2CCS(=O)(=O)C2)cc1 (stereo not drawn) | -2.1 | 2.1
CCn1ncc(C2=NOC(C(=O)Nc3cccnc3)C2)c1C (stereo not drawn) | 0.1 | 0.25
CN(C)c1ccc(NC(=O)c2cc3sc4ccccc4c3s2)cc1 | 0.92 | -3.2

Part of the list above, set out differently.
mol	CDC25B-CDK2 inh	HIV TAR-Tat
CCOc1ccc(OCC)c(NS(=O)(=O)c2cc3[nH]c4c(c3cc2C)C(=O)CC(C)(C)C4)c1	.	-0.38
CN1CCc2ccccc2Cc2[nH]c3ccccc3c2CC1	1.3	.
COc1ccc(NS(=O)(=O)c2ccc(C(=O)N3CCCC3)s2)c(OC)c1	.	1.5
